Screening results deposited in PubChem by several laboratories.
Beta apoptosis = beta cell apoptosis inhibition; INS-1E cytokine-induced death, ATP luminescence, 48 h; percent of positive-control rescue, neutral wells zero; protection from apoptosis, % (no concentration beside the values); 0.8% of 300,000 active; AID 435005;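 active = all replicates at 75% or more, or half of them and the mean; inconclusive = half reach 75% but not the mean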;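 also: 0% = cytokine-treated negative control wells and 100% = positive control rescue; higher means more ATP so stronger rescue from cytokine killing; wells of about 40 µL received 100 nL stock; the first replicate is given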
UCH37 DUB inh = inhibitors of human deubiquitinating enzyme UCH37 | Q9Y5K5 | purified proteasome/UCH37, Ub-AMC cleavage fluorescence | inhibition, % (test concentration not listed) | 0.33% of 330,000 active | AID 588478;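 active = mean of two replicates above 20%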;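 also: 0% = compound-free wells with enzyme and 100% = wells lacking proteasome; stock transfer was 100 nL into about 20 µL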
Target sequence (Q9Y5K5 whole entry, looked up): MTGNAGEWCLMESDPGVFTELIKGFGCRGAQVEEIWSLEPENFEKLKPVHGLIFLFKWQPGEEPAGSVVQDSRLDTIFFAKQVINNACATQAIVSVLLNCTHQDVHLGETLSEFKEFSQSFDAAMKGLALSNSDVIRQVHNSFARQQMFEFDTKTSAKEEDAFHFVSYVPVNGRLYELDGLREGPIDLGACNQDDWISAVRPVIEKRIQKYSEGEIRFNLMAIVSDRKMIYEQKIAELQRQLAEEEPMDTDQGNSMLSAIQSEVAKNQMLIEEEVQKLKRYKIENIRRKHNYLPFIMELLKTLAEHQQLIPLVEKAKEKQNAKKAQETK
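Material: human UCH37 enzyme supplied as purified proteasome complex. Measure: % inhibition of Ub-AMC cleavage fluorescence. Medium: pH 7.4 Tris-HCl (50 mM) with ovalbumin, ATP-MgCl2, DTT. Times: 30 min preincubation with enzyme, 25 min cleavage at room temperature. Detection: AMC fluorescence intensity at 355/460 nm.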
RanGTP-Impb inh = inhibitors of RanGTP-importin-beta interaction, primary screen, biochemical, FRET, CFP-Ran, YFP-importin-beta, homogeneous | cell-free CFP-Ran/YFP-importin-beta FRET ratio | inhibition, % (concentration not given with the values) | 1.1% of 300,000 active;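 active = most replicates above 15%; inconclusive = exactly half above 15%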;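 also: 0% = DMSO wells and 100% = Ran loaded with GDP instead of GTP; wells of about 40 µL received 100 nL stock; the first replicate is given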
Beta2AR agonist = activates human beta-2 adrenergic receptor causing internalization | Am2.2-beta2AR cells, FAP receptor internalization, flow cytometry; reference of the scale not given here | response, % (concentration not given with the values) | 0.43% of 340,000 active | AID 504454 | P07550;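 active = response above a set limit, near 3 SD of response in nonfluorescent compounds, cut at about 42% in these data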;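 also: stock transfer was 100 nL into about 11 µL; a reference agonist was the positive control; negative values mostly stem from fluorescent compounds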
Target sequence (P07550 whole entry, looked up): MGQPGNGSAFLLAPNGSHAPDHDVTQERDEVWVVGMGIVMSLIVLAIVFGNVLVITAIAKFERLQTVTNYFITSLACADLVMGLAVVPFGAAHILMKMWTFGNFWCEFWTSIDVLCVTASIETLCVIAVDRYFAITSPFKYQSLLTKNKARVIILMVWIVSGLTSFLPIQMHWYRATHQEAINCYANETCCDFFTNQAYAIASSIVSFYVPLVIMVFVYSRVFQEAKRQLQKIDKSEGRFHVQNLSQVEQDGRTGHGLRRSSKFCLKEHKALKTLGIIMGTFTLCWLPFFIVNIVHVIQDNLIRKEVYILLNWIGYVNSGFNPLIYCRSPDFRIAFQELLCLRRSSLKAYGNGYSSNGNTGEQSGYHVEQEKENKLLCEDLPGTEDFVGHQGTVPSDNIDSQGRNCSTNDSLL
T cruzi repl = T. cruzi replication inhibition | T. cruzi beta-gal in NIH3T3, luminescence, 90 h | inhibition, % (no concentration beside the values) | 1.4% of 300,000 active | AID 1885;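 active = mean inhibition across valid replicates above about 55%, limit read from the data; inconclusive = mean below that limit but half or more replicates reach it; inactive = mean below it, under half of replicates reach it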;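 also: signal also drops with host cell toxicity which is not excluded here; 0% = plate median of DMSO wells and 100% = zero luminescence signal; higher percent means less beta-gal luminescence so fewer parasites; stock transfer was 50 nL into about 50 µL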
A1 inh = inhibitors of the anti-apoptotic protein A1, read as caspase activation. 0.066% of 330,000 active. MEF A1-2A-BIM cells, Caspase-Glo 3/7 luminescence, 3 h; percent of clofoctol response, vehicle zero. caspase activation, % (concentration not given with the values);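 active = over half of replicate activation scores above 10%, or exactly half above 10 with the replicate mean above 10; inconclusive = replicate mean below 10 yet half the replicates above 10; inactive = over half of replicates below 10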;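 also: wells of about 30 µL received 50 nL stock; many hits fall short of the cut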
Calb FLC = C. albicans growth modulation with fluconazole; growth inhibition, % (no concentration beside the values); AID 1979; C. albicans CaCi-2 (fluconazole-resistant clinical isolate) + fluconazole, Alamar Blue growth, 48 h; 0.57% of 300,000 active;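 active = most replicates above 75%; inconclusive = exactly half above 75%; inactive = most below 75%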;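 also: all wells also contain fluconazole at 8 µg/ml as a sub-toxic cotreatment; 0% = median of DMSO wells and 100% = median of geldanamycin control wells; wells of about 8 µL received 7.5 nL stock; the first replicate is given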
LANA-H2A inh = blocks KSHV LANA binding to histone H2A/H2B. inhibition, % (no concentration beside the values). 0.6% of 320,000 active. cell-free LANA-H2A/H2B peptide, fluorescence polarization; in the data active = inhibition mostly above about 10%, no sharp cut-off; inactive = mostly below about 6.7%;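 also: stock transfer was 7.5 nL into about 10 µL; 0% = median of vehicle wells and 100% = median of positive control wells; one replicate is shown; the record names a cut of 25% in any replicate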
* marks the source's active call; other numbers are inactive results.

`COc1ccc(-n2nnnc2/C=C\Nc2ccccc2C(=O)c2ccccc2)cc1` gave Beta apoptosis 18.7, UCH37 DUB inh 5.7, RanGTP-Impb inh -0.4, Beta2AR agonist -6.0, T cruzi repl 7.1, A1 inh 0.1, Calb FLC -2.6 and LANA-H2A inh 3.8.
Screening CNC(=O)CC1C(=O)N(C)C(=S)N1NC(=O)c1ccc(Cl)cc1 (stereo not given) returned Beta apoptosis -6.0, UCH37 DUB inh -1.1, RanGTP-Impb inh 5.0, Beta2AR agonist -4.4, T cruzi repl 0.7, A1 inh 0.0, Calb FLC 3.5 and LANA-H2A inh -6.5.
`CCOC(=O)C(=CNc1nc(-c2ccc3ccccc3c2)cs1)C(=O)OCC` gave Beta apoptosis -3.5, UCH37 DUB inh -60.2, RanGTP-Impb inh -1.5, Beta2AR agonist 6.0, T cruzi repl -6.6, A1 inh 1.2, Calb FLC 4.7 and LANA-H2A inh 6.2.
`COCCCNC(=O)c1ccc2c(c1)ncn2-c1ccccc1OC` gave Beta apoptosis -4.0, UCH37 DUB inh 5.0, RanGTP-Impb inh -1.0, Beta2AR agonist 1.4, T cruzi repl 1.2, A1 inh -0.6 and Calb FLC -7.1.
For O=C(NCC1CCCCC1)c1cccc(S(=O)(=O)NCc2cccnc2)c1 the results were Beta apoptosis 3.2, UCH37 DUB inh 4.7, RanGTP-Impb inh -0.3, Beta2AR agonist -4.0, T cruzi repl 2.9, A1 inh 0.1, Calb FLC -6.1 and LANA-H2A inh 3.1.
Oc1c(/C=C/C=C/C=Nc2ccccc2)sc(=S)n1Cc1ccccc1 was read as Beta apoptosis -1.2, UCH37 DUB inh 16.2, RanGTP-Impb inh -0.3, Beta2AR agonist -9.2, T cruzi repl 2.3, A1 inh 0.3, Calb FLC 6.9 and LANA-H2A inh -3.9.
For COc1ccc(/C(C)=N/NC(=O)c2ccncc2)cc1 the results were Beta apoptosis 1.5, RanGTP-Impb inh -1.1, Beta2AR agonist -4.1, T cruzi repl 9.2, A1 inh 0.3, Calb FLC -0.3 and LANA-H2A inh 2.5.
CCn1cc(S(=O)(=O)c2ccc(C)cc2)[nH]c1=O was read as Beta apoptosis -0.4, UCH37 DUB inh 1.2, RanGTP-Impb inh inconclusive, Beta2AR agonist -6.7, T cruzi repl -13.3, A1 inh -3.4, Calb FLC -2.4 and LANA-H2A inh 5.0.
`COc1ccccc1N1CCN(C(=O)C2CCN(C(=O)c3cccc(Cl)c3)CC2)CC1` gave Beta apoptosis 1.9, UCH37 DUB inh -0.4, RanGTP-Impb inh 1.1, Beta2AR agonist -1.7, T cruzi repl 5.3, A1 inh -0.2, Calb FLC 0.3 and LANA-H2A inh 7.1.
For Cc1cc(C)c(/C=N/n2c(C)cc(C)c(C#N)c2=O)c(C)c1 the results were Beta apoptosis -1.1, RanGTP-Impb inh -4.2, Beta2AR agonist -17.1, T cruzi repl 13.9, A1 inh -0.6, Calb FLC 49.6 and LANA-H2A inh -3.0.
O=c1cc(C(F)(F)C(F)F)oc2ccccc12 was read as Beta apoptosis 3.9, UCH37 DUB inh -1.1, RanGTP-Impb inh 6.5, Beta2AR agonist 6.7, T cruzi repl -15.3, A1 inh -0.6, Calb FLC 36.4 and LANA-H2A inh 4.8.
For O=C(Cc1ccccc1)Nc1ccc(NC(=O)C2CC2)nc1 the results were Beta apoptosis -5.5, UCH37 DUB inh 3.7, RanGTP-Impb inh 1.2, Beta2AR agonist -3.6, T cruzi repl -18.5, A1 inh -0.2, Calb FLC 7.3 and LANA-H2A inh -3.5.
Screening CN(CC(=O)Nc1ccccc1Br)CC(=O)Nc1ccccc1-c1ccccc1 returned Beta apoptosis 2.0, UCH37 DUB inh -2.2, Beta2AR agonist 3.1, A1 inh 1.5 and LANA-H2A inh -0.1.
Screening Cc1nn(C)c(C)c1S(=O)(=O)N(CC(=O)NCCN1CCOCC1)c1ccc(C(C)C)cc1 returned UCH37 DUB inh 2.6, Beta2AR agonist -9.4, A1 inh 0.6 and LANA-H2A inh 7.3.
Screening COc1ccc(NC(=O)c2cc(-c3ccc4c(c3)OCO4)on2)cc1OC returned Beta apoptosis 3.7, UCH37 DUB inh -8.7, RanGTP-Impb inh 5.2, Beta2AR agonist 1.4, T cruzi repl -3.1, A1 inh -0.6, Calb FLC -9.7 and LANA-H2A inh -1.0.
O=C(CCCCn1c(=O)c2ccccc2n(CC(=O)Nc2ccc(F)cc2)c1=O)NCc1ccco1 was read as Beta apoptosis 0.8, UCH37 DUB inh 1.4, RanGTP-Impb inh -1.4, Beta2AR agonist -3.8, T cruzi repl -7.7, A1 inh 0.1, Calb FLC -5.9 and LANA-H2A inh 3.9.
Screening COc1cc(C(=O)Nc2cc(C)ccn2)ccc1OCC(=O)N1CCOCC1 returned Beta apoptosis 3.3, UCH37 DUB inh -0.9, RanGTP-Impb inh 1.6, Beta2AR agonist 4.0, T cruzi repl -8.5, A1 inh -2.7, Calb FLC -3.1 and LANA-H2A inh 1.7.
Screening C[C@@]12C(=O)N(CC3CC3)CC(=O)N1[C@H](C1CC1)[C@@H]1C(=O)N(c3ccccc3)C(=O)[C@@H]12 returned Beta apoptosis -6.3, UCH37 DUB inh -3.7, RanGTP-Impb inh 0.5, Beta2AR agonist -1.6, T cruzi repl -0.2, A1 inh -2.5, Calb FLC -7.2 and LANA-H2A inh 2.1.
O=C(Nc1ccc2c(c1)OCO2)C1Cc2ccccc2CN1S(=O)(=O)c1cccs1 (stereo not given) was read as Beta apoptosis -1.4, UCH37 DUB inh 2.8, RanGTP-Impb inh 2.0, Beta2AR agonist -0.9, T cruzi repl 11.2, A1 inh inconclusive, Calb FLC -2.4 and LANA-H2A inh 1.5.
Screening COc1ccc(Cl)cc1C(=O)OCC(=O)Nc1cccnc1Cl returned Beta apoptosis 4.5, UCH37 DUB inh -0.3, Beta2AR agonist 12.2, A1 inh 0.8 and LANA-H2A inh -0.2.
CC(c1nnc(SCC(=O)N2CC(=O)Nc3ccccc32)n1Cc1ccccc1)N(C)C (stereo not given) was read as Beta apoptosis 9.8, UCH37 DUB inh -1.1, RanGTP-Impb inh 3.4, Beta2AR agonist 7.4, T cruzi repl -4.3, A1 inh 0.3, Calb FLC inconclusive and LANA-H2A inh 1.8.
Screening COc1cccc(N2CC(C(=O)Nc3nnc(SCC(=O)c4ccccc4)s3)CC2=O)c1 (stereo not given) returned Beta apoptosis 4.1, UCH37 DUB inh 2.9, RanGTP-Impb inh 3.4, Beta2AR agonist 3.6, T cruzi repl 1.7, A1 inh 0.3 and Calb FLC -1.5.
`O=C(Cn1cnc2ccccc21)Nc1cc(C(F)(F)F)ccc1N1CCOCC1` gave Beta apoptosis 0.8, UCH37 DUB inh 4.5, RanGTP-Impb inh -1.1, Beta2AR agonist -13.2, T cruzi repl 3.3, A1 inh 0.5, Calb FLC 18.0 and LANA-H2A inh -2.7.
Cc1cc(C(F)F)nn1CC(=O)NCc1ccccc1F was read as Beta apoptosis -2.5, UCH37 DUB inh -1.1, RanGTP-Impb inh -3.3, Beta2AR agonist 4.3, T cruzi repl -11.2, A1 inh -0.2, Calb FLC -19.8 and LANA-H2A inh 8.3.
Screening O=C1CC(c2ccccc2)CC(=O)C1=CN1CCCC1 (stereo not given) returned Beta apoptosis -17.6, UCH37 DUB inh 5.1, RanGTP-Impb inh 2.4, Beta2AR agonist 5.8, T cruzi repl -9.2, A1 inh -0.4, Calb FLC 17.1 and LANA-H2A inh -0.4.
Screening CNC(=O)/C(C#N)=C\c1ccc(CNS(=O)(=O)c2ccc(Cl)cc2)o1 returned Beta apoptosis -9.2, UCH37 DUB inh 10.1, RanGTP-Impb inh 4.0, Beta2AR agonist -1.4, T cruzi repl -6.4, A1 inh 0.2, Calb FLC 0.8 and LANA-H2A inh 2.4.
O=Cc1c(NCCN2CCCC2)c2ccccc2[nH]c1=O was read as Beta apoptosis -2.4, UCH37 DUB inh 4.0, RanGTP-Impb inh -1.0, Beta2AR agonist -5.1, T cruzi repl -0.8, A1 inh 0.1, Calb FLC -0.5 and LANA-H2A inh 0.3.
CC(=O)C(C(C)=O)C(NC(=O)c1cccnc1)(C(F)(F)F)C(F)(F)F was read as Beta apoptosis 0.5, UCH37 DUB inh 1.5, RanGTP-Impb inh -2.8, Beta2AR agonist 4.2, A1 inh 0.1, Calb FLC 1.5 and LANA-H2A inh -1.7.
For O=C1C=C(/C=C/c2ccccc2)C[C@@H](c2ccc3c(c2)OCO3)C1 the results were Beta apoptosis 0.0, UCH37 DUB inh 1.6, Beta2AR agonist -2.2, A1 inh 0.1 and LANA-H2A inh 5.2.
For Cc1ccc(CSCC(=O)N/N=C/c2cccc(OC3CSC3)c2)cc1 the results were Beta apoptosis 1.7, RanGTP-Impb inh -1.9, Beta2AR agonist -2.5, T cruzi repl 12.6, A1 inh -0.4, Calb FLC inconclusive and LANA-H2A inh 5.0.
O=C(CN1CCCCC1)Nc1cc(S(=O)(=O)N2CCOCC2)ccc1N1CCCC1 was read as Beta apoptosis -2.3, UCH37 DUB inh 5.1, Beta2AR agonist 2.9, A1 inh 1.2 and LANA-H2A inh 6.4.
`CN1CCN(C(=O)C2CCCN(S(=O)(=O)c3ccc(Br)cc3)C2)CC1` (stereo not given) gave Beta apoptosis -1.9, UCH37 DUB inh 2.1, RanGTP-Impb inh -2.0, Beta2AR agonist -3.4, T cruzi repl 11.4, A1 inh inconclusive, Calb FLC -1.7 and LANA-H2A inh -0.3.
`Cc1ccc(C(=O)COC(=O)c2cc(Cl)nc3ccccc23)cc1` gave Beta apoptosis 0.3, UCH37 DUB inh -1.7, RanGTP-Impb inh -0.7, Beta2AR agonist 5.9, T cruzi repl -15.9, A1 inh -0.6, Calb FLC 8.8 and LANA-H2A inh -4.4.
For O=C(O)c1ccc(CNC(=O)c2ccc(S(=O)(=O)N3CCCCC3)cc2)cc1 the results were Beta apoptosis 10.6, UCH37 DUB inh 3.6, Beta2AR agonist -2.7, A1 inh -0.3 and LANA-H2A inh -7.7.
CC(=O)Nc1ccc(NC(=O)C(C)OC(=O)/C=C/c2ccc3c(c2)OCO3)cc1 (stereo not given) was read as UCH37 DUB inh -20.4, RanGTP-Impb inh 2.8, Beta2AR agonist -1.7, T cruzi repl 1.1, A1 inh 0.5, Calb FLC 8.8 and LANA-H2A inh 1.8.
For CCc1cc(=O)oc2c(CN3CCN(C)CC3)c(O)ccc12 the results were Beta apoptosis -0.6, UCH37 DUB inh inactive, RanGTP-Impb inh 4.0, Beta2AR agonist -0.1, T cruzi repl -0.3, A1 inh 0.7, Calb FLC 2.6 and LANA-H2A inh -0.9.
`CC(C(=O)c1c[nH]c(C(N)=O)c1)c1ncc(C(F)(F)F)cc1Cl` (stereo not given) gave Beta apoptosis 1.2, UCH37 DUB inh -0.7, RanGTP-Impb inh -2.4, Beta2AR agonist -5.1, T cruzi repl -20.4, A1 inh 0.7, Calb FLC 0.0 and LANA-H2A inh -0.5.
